CBX7 AlphaScr – blocks human CBX7 binding to H3K27me3 peptide. normalised signal (fraction of DMSO) (test concentration not listed). O95931. AlphaScreen His6-CBX7 / biotin-H3K27me3 peptide binding; active compounds read low. hit rate 1.1% among 66,000; in the data active = normalised signal below about 0.5;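 also: 100 nL library stock added to about 20 µL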
Target sequence (O95931 whole entry, looked up): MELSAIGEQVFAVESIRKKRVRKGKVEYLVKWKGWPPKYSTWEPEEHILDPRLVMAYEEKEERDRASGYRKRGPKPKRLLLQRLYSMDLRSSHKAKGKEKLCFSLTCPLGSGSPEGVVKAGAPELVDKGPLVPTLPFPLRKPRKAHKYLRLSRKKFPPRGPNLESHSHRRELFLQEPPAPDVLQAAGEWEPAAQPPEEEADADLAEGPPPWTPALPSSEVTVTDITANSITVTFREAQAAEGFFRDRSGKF
CBX7 AlphaScr z-score – recorded beside CBX7 AlphaScr, whose call it bears; z-score; measured here: z-score of CBX7 signal; some inactives read as strong as hits; reference of the scale not given here;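 same signal on another scale; lower means less binding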
The depositor's hits bear a star; & = joins results of further samples.

Screens in order: CBX7 AlphaScr | CBX7 AlphaScr z-score
1) O=C(Cn1nc(Cc2ccncc2)c2ccccc2c1=O)NCCCN1CCCC1=O
→ 1.11 | 3.49
2) COc1ccc(-c2cn(-c3ccc(C)cc3)c(S(=O)(=O)CC(=O)Nc3cccc(C)c3C)n2)cc1
→ 0.742 | -0.447
3) CC(C)COc1cccc(C(=O)Nc2cccc(-c3nc4ncccc4o3)c2)c1
→ 0.948 | -1.07
4) COc1ccc(CNC(=O)c2c[nH]c3ccc(S(=O)(=O)Nc4cc(C)cc(C)c4)cc3c2=O)cc1
→ 0.938 | -0.825
5) COC(=O)Cc1nc(Nc2cccc(Cl)c2)c2c(C)c(C)sc2n1
→ 1.05 | 0.0514
6) N=c1n(CCOc2ccc(Cl)cc2)c2ccccc2n1CC(N)=O
→ 0.983 | -0.112
7) Cc1ccc2nc(-c3ccncc3)c(Nc3ccccc3C)n2c1
→ 0.893 | -1.71
8) Cc1nc2ccc(S(=O)(=O)N(C)CC(=O)Nc3ccccc3C)cc2s1
→ 1.21 | 1.23
9) CCCCNc1nc(SCC(=O)NCc2ccccc2)nc2ccccc12
→ 1.03 | 1.36
10) COc1ccccc1-c1cc(C(=O)NCc2ccc(Cl)cc2)no1
→ 1.06 | 2.5
11) O=C(CN1C(=O)COc2ccc(Cl)cc21)NCCc1ccc(Cl)cc1
→ 1.12 | 0.239
12) CCCC1=Nc2cc(C(=O)N3CCC(C)CC3)ccc2Sc2ccc(C)cc21
→ 1 | 0.195
13) COC(=O)c1cnc(N2CCN(c3ncccn3)CC2)c2ccccc12
→ 1.31 | 11.9
14) CC1CCCC(NC(=O)c2ccc(NC3=NC4CS(=O)(=O)CC4S3)cc2)C1C (stereo not drawn)
→ 0.996 | -0.0758
15) N#Cc1nc(COc2ccccc2Cl)oc1N1CCCC1
→ 0.781 | -9.58
16) CCC(C)NC(=O)c1cc(=O)[nH]c2ccc(S(=O)(=O)N3CCC(C)CC3)cc12 (stereo not drawn)
→ 0.982 | -0.337
17) CCOC(=O)N1CCN(C(=O)c2ccc(NC3=NC4CS(=O)(=O)CC4S3)cc2)CC1 (stereo not drawn)
→ 0.993 | -0.134
18) O=C(c1ccccc1)c1cn(Cc2ccccc2)c2c(F)cc(F)cc2c1=O
→ 0.806 | -0.684
19) COc1ccc(OCCn2c(=N)n(CCO)c3ccccc32)cc1
→ 1.04 | 1.09
20) COc1ccc2cc(CCNC(=O)Cc3ccc(OC)c(OC)c3)c(=O)[nH]c2c1
→ 0.976 | -0.801

Random excerpt: 2 entries already listed
Screens in order: CBX7 AlphaScr | CBX7 AlphaScr z-score
15) N#Cc1nc(COc2ccccc2Cl)oc1N1CCCC1
→ 0.781 | -9.58
4) COc1ccc(CNC(=O)c2c[nH]c3ccc(S(=O)(=O)Nc4cc(C)cc(C)c4)cc3c2=O)cc1
→ 0.938 | -0.825

New compounds follow
Screens in order: CBX7 AlphaScr | CBX7 AlphaScr z-score
21) CCCOc1cccc(C(=O)Nc2c(C(=O)c3ccc(Br)cc3)oc3ccccc23)c1
→ 1.02 | 0.0584
22) CC(C)CN(CCNC(=O)Cn1nc(-c2ccc(Cl)cc2)ccc1=O)CC(C)C
→ 0.982 | -0.814
23) COc1ccccc1NC(=O)C(CCS(C)(=O)=O)N1C(=O)c2ccccc2C1=O (stereo not drawn)
→ 1 | 0.0192
24) C=CCc1cccc2cc(C(=O)Nc3nc(-c4ccccc4)cs3)c(=O)oc12
→ 1.04 | 0.423
25) O=C(NCc1ccccn1)c1ccc(CSc2nc3ccncc3n2Cc2ccc(F)cc2)cc1
→ 1.01 | 0.218
26) CC(=O)N1CCc2cc(S(=O)(=O)NC(CC(C)C)C(=O)N3CCC(C)CC3)ccc21 (stereo not drawn)
→ 0.853 | -2.72
27) COc1ccc(OC(C)c2nc(-c3ccc(C)cc3)no2)cc1 (stereo not drawn)
→ 1.35 | 4.49
28) COCCn1c(SCC(=O)Nc2ccccc2)nnc1-c1c[nH]c2ccccc12
→ 0.965 | -0.225
29) Cc1ccc2c(c1)NC(=O)C(CC(=O)Nc1ccc(Br)cc1F)O2 (stereo not drawn)
→ 1.07 | 2.79
30) CC(C)(C)c1ccc(CN2C3=NCCCN3c3ccccc32)cc1
→ 0.938 | -1.82
31) CCCC(=O)Nc1nc2ccc(OC)cc2s1
→ 1.01 | 0.255
32) CC(C)N1C(=O)CCC1C(=O)N1CCN(c2ccc(F)cc2)CC1 (stereo not drawn)
→ 1.16 | 1.86
33) Cc1ccccc1C(=O)Nc1sc2c(c1C(=O)NC(C)c1ccccc1)CCC(C)C2 (stereo not drawn)
→ 0.86 | -1.53
34) COc1ccccc1-c1nc(-c2cccnc2)no1
→ 0.957 | -0.426
35) CCN1CCN(C(c2cccs2)C(C)NC(=O)c2ccc(OC)c(OC)c2)CC1 (stereo not drawn)
→ 1.21 | 2.22
36) COc1ccc(CNC(=O)CS(=O)(=O)Cc2nc(-c3ccc(C)cc3)oc2C)cc1
→ 1.02 | 0.0316
37) CC1CCN(S(=O)(=O)c2cn(CC(=O)N3CCCCC3)c(=O)c3ccccc23)CC1
→ 0.937 | -0.493
38) CC1CC(C)CN(S(=O)(=O)c2ccc3c(c2)CCN3C(=O)C2CCC2)C1 (stereo not drawn)
→ 0.987 | -0.427
39) COc1ccccc1N1CCN(C2CC(=O)N(C)C2=O)CC1 (stereo not drawn)
→ 0.979 | -0.583
40) CCN(CC)S(=O)(=O)c1ccc2c(c1)N(CC(=O)N1CCc3ccccc31)C(=O)CS2
→ 1 | 0.117

Next part, starting with the last 2 of the part before.
entry	SMILES	CBX7 AlphaScr	CBX7 AlphaScr z-score
39	COc1ccccc1N1CCN(C2CC(=O)N(C)C2=O)CC1 (stereo not drawn)	0.979	-0.583
40	CCN(CC)S(=O)(=O)c1ccc2c(c1)N(CC(=O)N1CCc3ccccc31)C(=O)CS2	1	0.117
41	O=C(CCc1nc(-c2cccs2)no1)Nc1cccc(Cl)c1	0.879	-0.12
42	CC(C)c1ccc(N(C)C(=O)c2cn(-c3ccc(Cl)cc3)c(=O)c3ccccc23)cc1	1.05	1.27
43	O=c1oc2c(Cl)cc(Cl)cc2cc1-c1csc(Nc2ccccc2F)n1	0.925	-0.808
44	O=C(Nc1ccc(OC(F)(F)F)cc1)C1CCN(S(=O)(=O)c2cccs2)CC1	1.08	1.43
45	CC(=O)Nc1nc(C)c(-c2csc(Nc3ccc(Cl)cc3)n2)s1	1.01	0.0137
46	O=C(c1cnc(N2CCN(c3ccccn3)CC2)c2ccccc12)N1CCOCC1	0.981	-0.487
47	Clc1ccc(-n2nnnc2C(c2ccccc2Cl)N2CCOCC2)cc1 (stereo not drawn)	0.987	-0.0175
48	Cc1ccc(-n2cnc3cc(C(=O)NC4CCCC4)ccc32)cc1Cl	0.929	-1.23
49	Cc1ccccc1Nc1nc(-c2ccc(OCc3ccc(Br)cc3)cc2)cs1	0.754	-1.76
50	CCOCCCNC(=O)c1oc2ccc(S(=O)(=O)N3CCOCC3)cc2c1C	1.03	0.704
51	O=C(NCCc1nc(-c2ccccc2)cs1)c1ccc(-c2ccccc2)cc1	1.23	2.18
52	COc1ccc2nc(NC(=O)CSc3nncn3C)sc2c1	0.78&0.96	-0.866&-0.923

3 compounds out of the list above, ordered by the number in CBX7 AlphaScr z-score, ascending.
entry	mol	CBX7 AlphaScr z-score
7	Cc1ccc2nc(-c3ccncc3)c(Nc3ccccc3C)n2c1	-1.71
43	O=c1oc2c(Cl)cc(Cl)cc2cc1-c1csc(Nc2ccccc2F)n1	-0.808
20	COc1ccc2cc(CCNC(=O)Cc3ccc(OC)c(OC)c3)c(=O)[nH]c2c1	-0.801

Laid out differently: results already given.
26: CC(=O)N1CCc2cc(S(=O)(=O)NC(CC(C)C)C(=O)N3CCC(C)CC3)ccc21 (stereo not drawn)
27: COc1ccc(OC(C)c2nc(-c3ccc(C)cc3)no2)cc1 (stereo not drawn)
28: COCCn1c(SCC(=O)Nc2ccccc2)nnc1-c1c[nH]c2ccccc12
29: Cc1ccc2c(c1)NC(=O)C(CC(=O)Nc1ccc(Br)cc1F)O2 (stereo not drawn)
30: CC(C)(C)c1ccc(CN2C3=NCCCN3c3ccccc32)cc1

Compound,26,27,28,29,30
CBX7 AlphaScr,0.853,1.35,0.965,1.07,0.938
CBX7 AlphaScr z-score,-2.72,4.49,-0.225,2.79,-1.82

(cont.)
entry	SMILES	CBX7 AlphaScr	CBX7 AlphaScr z-score
53	Cc1ccc(-c2cc(C(=O)NCCCN3CCCCC3C)c3ccccc3n2)cc1C (stereo not drawn)	0.997	-0.12
54	Cc1ccc(CNc2ncnc3c2c(-c2ccccc2)cn3-c2ccc(F)cc2)cc1	0.991	-0.247
55	CCc1ccc(NC(=O)Cn2cc(S(=O)(=O)c3ccc(F)cc3)c(=O)c3cc(CC)ccc32)cc1	0.991	-0.305
56	O=C(Cn1nc(Cc2cccnc2)c2ccccc2c1=O)Nc1cc(F)ccc1F	0.922	-0.102
57	CCN(C(=O)c1cc2c(s1)-c1ccccc1OC2)c1cccc(C(F)(F)F)c1	1.54	26.2
58	Cc1ccc(CN2CCN(CC(=O)NCCC(C)C)C2=O)cc1	1.02	0.442
59	Cc1onc(-c2c(F)cccc2Cl)c1C(=O)Nc1ccc(F)c(F)c1	0.934	-0.758
60	O=C(Nc1nnc(COc2ccccc2)s1)c1cccs1	1.08	0.228
61	CCCCOC(=O)c1ccc(NC(=O)c2cnc3cc(C)ccn3c2=O)cc1	1.03	0.732
62	Cc1cc(NS(=O)(=O)NC2CCCCC2)no1	1.16	1.19
63	O=C(CCCN1C(=O)c2cccnc2C1=O)Nc1cccc2c1CCCC2	0.679	-5.41
64	CCn1c(C)nc2cc(S(=O)(=O)N(C)C)ccc21	1.04	0.868
65	CCCn1c(=N)n(CC(O)COc2ccc(Cl)cc2Cl)c2ccccc21 (stereo not drawn)	0.877	-0.798

From PubChem

This is a subset; the hit share may differ from the screen's.
